# Source: PubChem BioAssay (Johns Hopkins Ion Channel Center)
# Kir21 block – inhibitors of mouse Kir2.1 inward-rectifier potassium channel; HEK293-Kir2.1, FluxOR thallium flux fluorescence; active compounds read low; B-score at 10 µM; 0.85% of 310,000 active;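 active = fluorescence ratio B-score at or below minus 3 SD of library scores, with starting-brightness B-score within 2 SD, cut at about -4.2 in these data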;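 note: channel flux triggered by added potassium and thallium sulfate stimulus; B-score of peak minus minimum fluorescence over baseline after thallium stimulus; more negative B-score means stronger Kir2.1 block with less thallium influx; some compounds called inactive have numbers as strong as hits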
# Target sequence (P35561 whole entry, looked up): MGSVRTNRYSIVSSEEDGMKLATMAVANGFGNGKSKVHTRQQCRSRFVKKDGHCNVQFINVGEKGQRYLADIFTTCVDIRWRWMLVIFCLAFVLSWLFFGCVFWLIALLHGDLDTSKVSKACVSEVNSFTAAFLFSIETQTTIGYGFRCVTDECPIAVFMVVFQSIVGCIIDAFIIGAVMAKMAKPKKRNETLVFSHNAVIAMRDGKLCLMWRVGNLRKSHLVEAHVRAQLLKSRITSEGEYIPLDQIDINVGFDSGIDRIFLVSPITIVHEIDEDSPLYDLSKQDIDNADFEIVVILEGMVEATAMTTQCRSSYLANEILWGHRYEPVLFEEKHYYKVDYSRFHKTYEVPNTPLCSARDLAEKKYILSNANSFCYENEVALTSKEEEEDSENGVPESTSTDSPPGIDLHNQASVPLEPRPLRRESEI
# * hit, by the source's call; & = joins results of further samples. The list is partial, and most or all hits are left out here.
SMILES,Kir21 block
COc1ccc2[nH]c(=O)c(CN(Cc3cccs3)S(=O)(=O)c3c(C)ccc4nsnc34)cc2c1,1.31
COc1ccc2c(c1O)Cc1ccccc1C2=O,0.69
O=C(CSc1nnc(CNC(=O)c2ccco2)o1)c1ccccc1,1.11
CC(=O)Oc1ccc(/C=N/NC(=O)CCSc2ccccc2)cc1,0.55
OCCOCCOc1ccccc1OCCOCCO,-0.13
COc1ccc(NC(=O)c2ccc(C#CC(C)(C)O)cc2)cc1,0.31
CC1CC(C)(C)NC(=S)O1 (stereo not given),-0.39&0.03
COc1cc(C(=O)N/N=C2\CCS(=O)(=O)c3ccc(F)cc32)cc(OC)c1OC,0.04
COc1ccc(NC(=O)Cn2c(=O)n(CCC(=O)NCC3CCCO3)c(=O)c3cc(OC)c(OC)cc32)cc1 (stereo not given),-1.27
Cc1ccccc1C(=O)NNc1ncnc2c1cnn2C,0.23
CCCCS(=O)(=O)N1CN(S(=O)(=O)CCCC)C2NC(=O)NC21 (stereo not given),-0.66
O=C(NCCCc1ccc(F)cc1)C1CCC(=O)N(CCN2CCOCC2)C1 (stereo not given),-0.65
COc1ccc(CCNCCC(=O)Nc2c(C)cc(C)cc2C)cc1OC,-1.18
Cc1ccc(NC(=O)CCc2nc3sc4c(c3c(=O)[nH]2)CCCC4)c(Br)c1,-1.38
C/C(=C\C(=O)c1ccccc1)NCc1ccc(F)cc1,0
Cc1csc(NC(=O)NC2(C(F)(F)F)Oc3ccccc3O2)n1,1.28
COc1ccc(CNC(=O)CSc2ncnc3ccccc23)cc1OC,-0.46
COc1ccc(NC(=O)COc2cc(O)c3c(c2)OC(C)(C)CC3=O)cc1,0.95
CCNC(=O)/C(C#N)=C/c1c(N2CCCCCC2)nc2c(C)cccn2c1=O,0.87
N/C(=N\OC(=O)/C=C/c1ccc(Br)cc1)c1ccccn1,2.26
S=C(c1ccc(-c2ccccc2Cl)o1)N1CCOCC1,2.08
Cc1nc2ccccn2c1C(=O)NN=C1CCN(C)CC1,0.65
CC(C)C(=O)O/N=C1\CCS(=O)(=O)c2sccc21,1.16
Cc1ncsc1C(=O)Nc1cccc(C(F)(F)F)c1,-0.6
COc1ccc(NC(=O)c2cc(-c3ccccc3)on2)cc1OC,0.11
# The list continues:
SMILES,Kir21 block
COc1ccc(NC(=O)Nc2ccccc2F)cc1,0.2
CCN(CC)CCN1C(=O)C(=O)/C(=C(/O)c2ccc(F)cc2)C1c1cccnc1 (stereo not given),0.27
CC(C)Oc1ccc(/C=N/NC(N)=S)cc1,0.04
O=C(O)CCCC(=O)N1N=C(c2ccccc2)CC1c1ccc2c(c1)OCO2 (stereo not given),0.75
CC(C)Nc1nc(NC(C)C)nc(SCC(N)=O)n1,0.63
COc1cc(C(=O)NNC2=NC(C)(C)Cc3cc(C)c(C)cc32)cc(OC)c1OC,-0.18
O=C(CN1CCN(c2ccccn2)CC1)Nc1cc(F)ccc1F,1.49
CCCc1ccc(S(=O)(=O)N/N=C(/C)c2ccc3c(c2)OCO3)cc1,-1.82
CNC(=O)C(C)c1ncc(C(F)(F)F)cc1Cl (stereo not given),0.58
O=c1cnn(Cc2ccc(Cl)c(Cl)c2)c2ccccc12,-1.68
O=[N+]([O-])c1ccc(C2Nc3cccc4cccc(c34)N2)cc1,-0.05
O=C(Nc1cccc(F)c1)NC1(C(=O)N2CCOCC2)CCCCC1,0.02
COc1cc(/C=C/C(=O)O)cc(Br)c1O,0.51
c1ccc(-c2nc(-c3ccncc3)n[nH]2)nc1,0.77
O=C1CC(N2CCN(c3ccc(S(=O)(=O)N4CCCC4)cc3)CC2)C(=O)N1c1ccc(F)cc1 (stereo not given),1.46
CC(OC(=O)CNC(=O)C12CC3CC(CC(C3)C1)C2)C(=O)Nc1ccc(N2CCOCC2)cc1 (stereo not given),1.08
O=C(NCc1ccc(F)cc1)c1cccc(S(=O)(=O)N2CCCC2)c1,0.13
Cc1cc(C)c(S(=O)(=O)c2cccc(Br)c2C)c(=O)[nH]1,-0.98
CCOC(=O)Cc1c(C)nc2c(-c3ccccc3)c(C)[nH]n2c1=O,0
CCC(Cc1ccccc1)NS(=O)(=O)c1c(C)nc2scc(C)n2c1=O (stereo not given),-0.72
Cc1ccc(S(=O)(=O)N2CCN(CC(=O)Nc3ccc([N+](=O)[O-])cc3)CC2)cc1C,0.02
CCOCc1nnc(NC(=O)CCc2ccccc2)s1,0.9
COc1cccc(C(=O)c2ncc(C(F)(F)F)cc2Cl)c1,-0.34
Cc1cc(N2C(=O)C(O)=C(C(=O)c3ccc(C)o3)C2c2cccc(Oc3ccccc3)c2)no1 (stereo not given),-1.88
COc1ccc(/C(N)=N/OC(=O)c2ccco2)cc1,-0.01
# Further entries
SMILES,Kir21 block
CC(=O)N(c1nc(/C=C\C(=O)O)cs1)c1ccccc1F,-2.65
S=C(NCC(c1cccnc1)N1CCOCC1)NC1CCCCC1 (stereo not given),0.7
CCN(CC)S(=O)(=O)c1ccc(Cl)c(NC(=O)COC(=O)/C=C/c2ccc(O)c(OC)c2)c1,0.76
O=C(Nc1ccc2c(c1)CCC2)c1ccccc1F,0.3
CC(C)CNC(=O)c1ccccc1NC(=O)CSCc1ccccc1,-0.54
COc1cc(NC(=O)Nc2cccc3cccnc23)cc(OC)c1OC,0.92
Cn1nc(C(=O)NC2=NCCS2)ccc1=O,0.61
O=c1[nH]nnc2c1sc1nc(N3CCOCC3)c3c(c12)CCCC3,1.71
O=S(=O)(c1ccc2c(c1)OCCO2)N(Cc1ccc(F)cc1)Cc1nnc(-c2cccs2)o1,-1.05
CN(C)CCn1c(C(=O)Nc2ccccc2)cc2ccccc21,0.02
C#Cc1ccc([C@H]2C=C(C(=O)NCc3nc4ccccc4[nH]3)O[C@@H](OCc3ccc(CO)cc3)C2)cc1,1.33
Cc1nnc(SCC(=O)NCCN2C(=O)CSC2=O)n1-c1ccccc1,0.49
CCOC(=O)c1cnc(N2CCOCC2)[nH]c1=O,1.64
CCc1nnc(NC(=O)C2Cc3ccccc3C(=O)O2)s1 (stereo not given),-1.74
NC(N)=N/N=C/c1ccc(Br)cc1,-1.22
CC(=O)OC(C(=O)n1nc(C)cc1C)c1ccccc1 (stereo not given),0.23
COc1ccc(NC(=O)c2ccccc2SC)cc1OC,-0.24
CN1CCN(S(=O)(=O)c2ccc(NC(=S)NC(=O)c3ccccc3)cc2)CC1,-0.79
CN(C)S(=O)(=O)c1cc(NC(=O)CN2CCc3ccccc32)ccc1Cl,1.96
COC(=O)C(Cc1ccccc1)NC(=O)CC(C)CC(=O)Nc1ccc(C)cc1 (stereo not given),0.8
Cc1ccc(NC(=O)NCCCN2CCOCC2)cc1,0
Cc1ccc(NC(=O)Nc2ccc3c(c2)OCO3)nc1,0.05
O=C(Nc1ccccc1)/C(=C/c1ccc([N+](=O)[O-])cc1)NC(=O)c1ccco1,0.01
Cc1cccc(Nc2ncnc3nc[nH]c23)c1,0.62
Cc1cc(C)nc(SCCC(=O)N2CCOCC2)n1,1.51

# An excerpt of these results, as tab-separated lines.
Structure	Kir21 block
Cc1ccc(S(=O)(=O)N2CCN(CC(=O)Nc3ccc([N+](=O)[O-])cc3)CC2)cc1C	0.02
CCOCc1nnc(NC(=O)CCc2ccccc2)s1	0.9
COc1cccc(C(=O)c2ncc(C(F)(F)F)cc2Cl)c1	-0.34
Cc1cc(N2C(=O)C(O)=C(C(=O)c3ccc(C)o3)C2c2cccc(Oc3ccccc3)c2)no1 (stereo not given)	-1.88
COc1ccc(/C(N)=N/OC(=O)c2ccco2)cc1	-0.01
CC(=O)N(c1nc(/C=C\C(=O)O)cs1)c1ccccc1F	-2.65
S=C(NCC(c1cccnc1)N1CCOCC1)NC1CCCCC1 (stereo not given)	0.7
CCN(CC)S(=O)(=O)c1ccc(Cl)c(NC(=O)COC(=O)/C=C/c2ccc(O)c(OC)c2)c1	0.76
O=C(Nc1ccc2c(c1)CCC2)c1ccccc1F	0.3
CC(C)CNC(=O)c1ccccc1NC(=O)CSCc1ccccc1	-0.54
COc1cc(NC(=O)Nc2cccc3cccnc23)cc(OC)c1OC	0.92
Cn1nc(C(=O)NC2=NCCS2)ccc1=O	0.61
O=c1[nH]nnc2c1sc1nc(N3CCOCC3)c3c(c12)CCCC3	1.71
O=S(=O)(c1ccc2c(c1)OCCO2)N(Cc1ccc(F)cc1)Cc1nnc(-c2cccs2)o1	-1.05
CN(C)CCn1c(C(=O)Nc2ccccc2)cc2ccccc21	0.02
C#Cc1ccc([C@H]2C=C(C(=O)NCc3nc4ccccc4[nH]3)O[C@@H](OCc3ccc(CO)cc3)C2)cc1	1.33
Cc1nnc(SCC(=O)NCCN2C(=O)CSC2=O)n1-c1ccccc1	0.49
CCOC(=O)c1cnc(N2CCOCC2)[nH]c1=O	1.64
CCc1nnc(NC(=O)C2Cc3ccccc3C(=O)O2)s1 (stereo not given)	-1.74
NC(N)=N/N=C/c1ccc(Br)cc1	-1.22
CC(=O)OC(C(=O)n1nc(C)cc1C)c1ccccc1 (stereo not given)	0.23
COc1ccc(NC(=O)c2ccccc2SC)cc1OC	-0.24
CN1CCN(S(=O)(=O)c2ccc(NC(=S)NC(=O)c3ccccc3)cc2)CC1	-0.79
CN(C)S(=O)(=O)c1cc(NC(=O)CN2CCc3ccccc32)ccc1Cl	1.96
COC(=O)C(Cc1ccccc1)NC(=O)CC(C)CC(=O)Nc1ccc(C)cc1 (stereo not given)	0.8
Cc1ccc(NC(=O)NCCCN2CCOCC2)cc1	0
Cc1ccc(NC(=O)Nc2ccc3c(c2)OCO3)nc1	0.05
O=C(Nc1ccccc1)/C(=C/c1ccc([N+](=O)[O-])cc1)NC(=O)c1ccco1	0.01
Cc1cccc(Nc2ncnc3nc[nH]c23)c1	0.62

# The list continues:
SMILES,Kir21 block
CCN(CC)c1ccc(N=Nc2nn(C)c(C)c2[N+](=O)[O-])cc1,0.64
O=C(Nc1ccc2nc3ccccc3nc2c1)c1ccc(Br)cc1,-5.71
O=C(COc1cccc2cccnc12)N1CCc2ccccc21,0.32
Cc1ccc2c(=O)[nH]c(Cc3ccccc3C(=O)O)nc2c1,0.62
Cc1ccc(/C=N/n2c(=O)c(C(C)(C)C)nn3cnnc23)cc1,-0.34
Cc1ccc(S(=O)(=O)Nc2cc(-c3ccccc3)nn2C)cc1,0.02
COc1ccccc1-n1c(-c2ccc(NS(C)(=O)=O)cc2)n[nH]c1=S,-0.72
COc1ccccc1C(=O)NCc1ccncc1,-0.45
Cc1ccc2nc(-c3ccncc3)c(Nc3ccccc3)n2c1,-0.13
Cc1ccc(N(CC(=O)N2CCN(c3ccccc3F)CC2)S(=O)(=O)c2c(C)noc2C)cc1,0.09
CCC(C)(C(=O)NC1CCCCC1)N(C)C(=O)c1ccc2c(c1)OCO2 (stereo not given),1.45
CCCNc1nc(C)c(C(C)=O)cc1C#N,0.67
NS(=O)(=O)c1ccc(CCNS(=O)(=O)c2ccc(Cl)nc2)cc1,0.01
NS(=O)(=O)c1cccc(NC(=S)NC(=O)C23CC4CC(CC(C4)C2)C3)c1,-1.34
Cc1cc2c(C)cc(=O)oc2c2c1NCCC2,-1.34
C=CCn1c(C(C)NC(=O)c2ccccc2)n[nH]c1=S (stereo not given),-0.2
O=C1NN(c2ccc(Br)cc2)C(=O)/C1=C\c1ccc(O)cc1O,0.42
O=C(Cc1ccc(Br)cc1)N1CCN(c2ccccc2O)CC1,-0.3
CCOC(=O)N/N=C\c1ccc(OC(=O)c2ccc3c(c2)OCO3)cc1,-0.68
CC1CC(C)CN(C(=O)c2ccc(CNc3c(N4CCCC4)c(=O)c3=O)cc2)C1 (stereo not given),-0.01
NC(=O)C1CCN(C(=S)NCc2ccc3c(c2)OCO3)CC1,-0.05
Cc1ccc(OCCn2c(=O)oc3ccc(C)cc32)cc1,-0.02
O=C(CNC(=S)N(Cc1ccccc1)Cc1cccnc1)NCc1ccccc1,0.44
CCOC(=O)CN1N=C(c2ccc(C)cc2)CCC1=O,0.87
Cc1c(/C=C2\SC(=Nc3cccc(C(=O)O)c3)NC2=O)c2ccccc2n1C,-1.53
# Going on with the list.
SMILES,Kir21 block
Cc1cccc(Oc2coc3cc(O)ccc3c2=O)c1,0.51
O=C(NCc1ccccn1)c1cc(S(=O)(=O)N2CCN(c3ccccc3)CC2)ccc1Cl,1.3
O=C(NCc1ccco1)c1nnc(Cc2ccc(F)cc2)o1,0.06
N=c1c2c3c(sc2ncn1CCN1CCOCC1)CCCC3,0.15
Cc1ccccc1C1CCCN(C(=O)c2cc(COc3c(F)cccc3F)on2)C1 (stereo not given),-0.8
CC1CC(C)CN(S(=O)(=O)N2CCCC(C(=O)NCCc3ccc(Cl)cc3)C2)C1 (stereo not given),0.3
O=C(Nc1cccc(Cl)c1)c1cccnn1,-0.01
COc1cc(OC)cc(C(=O)OCC(=O)Nc2ccc(F)cc2F)c1,0.02
COc1cc2ccccc2cc1C(=O)NC(=S)Nc1cccc(C(=O)O)c1,0.01
CCOc1cc(NS(=O)(=O)c2ccc(Cl)cc2)c(OCC)cc1NC(=O)CC(C)C,-1.91
COc1cc(SC)ccc1C(=O)OCc1nc2ccsc2c(=O)[nH]1,2.34
Cc1cc(C)nc(N2CCC(C(=O)NCc3cccc(C(F)(F)F)c3)CC2)n1,-0.68
